Screening results: PubChem, ICCB-Longwood Screening Facility, Harvard Medical School
MenB inh – inhibitors of Mycobacterium tuberculosis MenB enzyme. P9WNP5. MenB enzyme assay, absorbance read-out; some hits fall short of the stated cut. inhibition, %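 (about 12 µg/mL by stock and volumes)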. 100,000 compounds, 0.43% hits. AID 540299;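 active = mean of two replicates above 30%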;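 note: 0% = no compound and 100% = wells with inactive enzyme; the first replicate is given; strong numbers were not always called active; inactives centre near -10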
Mtb MbtI inh – inhibitors of Mycobacterium tuberculosis siderophore enzyme MbtI; purified MbtI enzyme, fluorescence intensity read-out; inhibition, %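 (about 17 µg/mL by stock and volumes)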; 100,000 compounds, 0.89% hits; AID 493033;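 active = above 50% in both replicates, above 80% if mildly self-fluorescent; inactive = the rest, strongly fluorescent compounds included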;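 note: 0% = mean of negative and 100% = mean of positive controls; one replicate is shown; some compounds called inactive have numbers as strong as hits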
Target sequence (P9WFX0 whole entry, looked up): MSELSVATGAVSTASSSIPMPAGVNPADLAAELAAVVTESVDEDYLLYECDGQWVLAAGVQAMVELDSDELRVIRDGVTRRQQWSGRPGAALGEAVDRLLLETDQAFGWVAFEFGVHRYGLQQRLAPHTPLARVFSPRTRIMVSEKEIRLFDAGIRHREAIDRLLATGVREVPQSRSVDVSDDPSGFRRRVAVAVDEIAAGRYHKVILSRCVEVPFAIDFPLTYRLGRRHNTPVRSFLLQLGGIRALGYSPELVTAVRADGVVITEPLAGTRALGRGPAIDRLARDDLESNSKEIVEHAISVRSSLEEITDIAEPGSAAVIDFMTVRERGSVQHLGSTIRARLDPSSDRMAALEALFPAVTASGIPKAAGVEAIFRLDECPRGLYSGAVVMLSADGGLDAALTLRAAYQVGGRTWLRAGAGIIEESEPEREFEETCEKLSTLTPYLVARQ
PV pol inh – inhibitors of poliovirus RNA polymerase binding and polymerization; P03300; poliovirus polymerase elongation, fluorescence polarization; hits give low values; % elongation, % (compound at 16.7 µg/mL); 150,000 compounds, 0.66% hits; in the data active = % elongation below about 90%; note: some results filed as inactive read as strong as hits
Target sequence (P03300 1749-2209 limits assumed): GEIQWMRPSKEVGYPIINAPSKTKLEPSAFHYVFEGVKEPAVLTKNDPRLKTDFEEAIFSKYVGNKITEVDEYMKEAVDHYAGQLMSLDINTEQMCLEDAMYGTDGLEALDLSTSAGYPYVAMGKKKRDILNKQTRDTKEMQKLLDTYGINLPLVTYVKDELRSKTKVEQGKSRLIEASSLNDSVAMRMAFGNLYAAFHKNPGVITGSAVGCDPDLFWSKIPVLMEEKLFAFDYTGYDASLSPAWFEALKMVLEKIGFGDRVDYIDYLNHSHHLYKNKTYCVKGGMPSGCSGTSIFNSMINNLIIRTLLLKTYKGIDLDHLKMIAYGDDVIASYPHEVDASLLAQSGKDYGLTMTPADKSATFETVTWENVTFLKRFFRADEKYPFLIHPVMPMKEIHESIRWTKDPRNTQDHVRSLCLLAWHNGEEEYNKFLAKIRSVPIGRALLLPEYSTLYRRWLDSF
PV pol inh intensity – further read-out of PV pol inh, marked with its call; % elongation; measured here: total intensity read-out; formula for this scale not given here;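 total fluorescence in place of polarization; lower means less elongation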
* marks the source's active call; other numbers are inactive results; . = not tested or not shown. No enrichment for hits, and some 1.7% of all compounds hit somewhere here.

Sample of the layout, five compounds:
Structure	PV pol inh intensity	MenB inh	PV pol inh	Mtb MbtI inh
CN(C)S(=O)(=O)Nc1ccc(C(=O)O)cc1	106	-6	106	.
Cc1nc(CC(=O)NN=C2C3CC4CC(C3)CC2C4)cs1	102	-10	98	11
O=C1N(CN2CCOCC2)c2ccccc2C12OCCO2	102	-2	104	-5
O=C(NCCCn1ccnc1)c1ccc(Br)c(S(=O)(=O)N2CCOCC2)c1	103	8	101	-6
O=C(CSc1ncccc1C(=O)Nc1ccnn1Cc1cccnc1)Nc1ccc2c(c1)OCO2	105	-31	108	-7

All compounds of this part, previewed entries included:
Structure	PV pol inh intensity	MenB inh	PV pol inh	Mtb MbtI inh
CN(C)S(=O)(=O)Nc1ccc(C(=O)O)cc1	106	-6	106	.
Cc1nc(CC(=O)NN=C2C3CC4CC(C3)CC2C4)cs1	102	-10	98	11
O=C1N(CN2CCOCC2)c2ccccc2C12OCCO2	102	-2	104	-5
O=C(NCCCn1ccnc1)c1ccc(Br)c(S(=O)(=O)N2CCOCC2)c1	103	8	101	-6
O=C(CSc1ncccc1C(=O)Nc1ccnn1Cc1cccnc1)Nc1ccc2c(c1)OCO2	105	-31	108	-7
CN1CCN(c2ccccc2NC(=O)C2CCC2)CC1	98	-12	97	15
COc1ccc(-c2noc(N3CCN(c4cccc(C)c4C)CC3)n2)cc1	103	8	102	-3
COC(=O)c1ccc(-n2c(C)cc(C(=O)CSc3nncs3)c2C)cc1	96	-29	100	-4
O=C(CN1C(=O)/C(=C\c2cccc(Cl)c2)Oc2ccccc21)NCCN1CCCC1	99	-9	101	6
CC(CCc1ccccc1)NC(=O)c1n[nH]c2c1CCCC2 (configuration not stated)	108	-28	103	-10
N#Cc1c(/N=C/c2c[nH]c3ccccc23)oc(-c2ccccc2)c1-c1ccccc1	115	-9	104	-7
CCc1ccc(Sc2cc(C(=O)NCC3CCCO3)c3ccccc3n2)cc1 (configuration not stated)	104	-9	100	3
Cc1ccc(C(=O)c2coc3ccc(O)c(CN(C)C)c23)cc1	107	-13	99	.
Cc1cccc(C)c1OCC(=O)NCc1nnc(SCC(=O)NC2CCCCC2C)n1C (configuration not stated)	101	-18	99	1
CCN1CCCC1CNC(=S)NCc1ccccc1 (configuration not stated)	109	-3	99	-9
O=c1cc(-c2ccc(-c3ccccc3)cc2)[nH][nH]1	102	-26	101	-56
CCN1CCN(C(=O)CC#N)CC1	107	.	102	-11
Fc1ccccc1N1CCN(Cn2nc(-c3ccco3)oc2=S)CC1	94	-32	100	10
N=c1n(CCN2CCCCC2)c2ccccc2n1CC(O)c1cccs1 (configuration not stated)	102	12	99	-3
CN(C(=O)C1CCC(CNS(=O)(=O)c2cccc3nsnc23)CC1)C1CCCCC1 (configuration not stated)	102	-2	102	-7
COc1ccc(OCC(=O)N2c3ccccc3Sc3ccccc32)cc1	108	-41	104	10
NCc1cn[nH]c1-c1ccccc1	106	-3	101	.
CC(=O)Nc1ccc(Nc2ncnc3ccc(Br)cc23)cc1	104	-2	105	2
CSCc1c(C(=O)Nc2ccc(NC(C)=O)cc2)oc2ccccc12	103	-14	103	187
N#CC1=C(N)SC(N)=C(C#N)C1c1cccc(C(F)(F)F)c1	177	-83	74	26
O=C(NC1CCN(Cc2ccccc2)CC1)c1cn(-c2ccccc2)nc1-c1cccs1	103	-25	105	-16
COc1cccc(NC(=O)c2c(Cl)nc3sccn23)c1	104	.	104	-6
COc1ccc(CC2NCCc3cc(OC)c(OC)cc32)cc1OC (configuration not stated)	113	-8	105	.
Cc1cccc(OCCOc2ccc(Br)cc2/C=C2\SC(=S)NC2=O)c1	.	-32	.	29
N#CCSc1nc2c(sc3ccccc32)c(=O)n1CCCN1CCOCC1	104	7	101	19
O=C1C2CCCN2C(=S)N1C1CCCCC1 (configuration not stated)	100	31	102	4
CN(C)C=NC1=C(c2ccccc2)C(=O)c2ccccc21	93	-6	101	-11
CCC1CCCCN1C(=O)c1cc2ncc(Br)cn2n1 (configuration not stated)	102	-28	100	3
O=C1OC(c2ccccc2)=C/C1=C/N1CCOCC1	100	-56	102	-14
C=CCn1c(=S)sc2c(=O)[nH]c(C)nc21	103	3	105	0
O=C(O)CNCC1COc2ccccc2O1 (configuration not stated)	103	34	98	-3
CCOc1ccc(-c2cc(NC(=O)c3noc4c3CCCCC4)on2)cc1OCC	105	-20	106	-20
CC(C)c1nc2sc3c(NCC4CCCO4)ncnc3c2c2c1CCCC2 (configuration not stated)	104	1	102	0
COc1ccc(C2C3(C#N)C(N)=NC4(OCCO4)C23C#N)cc1 (configuration not stated)	104	-13	102	3
Oc1cccnc1NC(c1ccc(F)cc1)c1ccc2cccnc2c1O (configuration not stated)	111	-32	112	30
CN1N=C(c2cccs2)CSC1=NCc1ccccc1	105	-22	103	-4
Cc1ccc(C(=O)N2N=C3c4ccccc4S(=O)(=O)N3C2N2CCCCC2)cc1 (configuration not stated)	98	-25	101	24
O=C(CN1C(=O)c2ccccc2C1=O)Nc1nccs1	109	1	104	-12
C/C(N)=C(/C#N)C(=O)CSc1nnc(COc2cc(C)ccc2C)o1	106	-31	107	-17
CC(=O)Nc1ccccc1C(=O)N1CC2(C)CC1CC(C)(C)C2 (configuration not stated)	100	-44	102	-9
O=S1(=O)CCC(SCc2nnc(-c3ccccc3)o2)C1 (configuration not stated)	101	-61	100	-2
O=c1c(/C=N/O)coc2ccccc12	104	5	99	7
CCn1c2ccccc2c2nc3cc(C(=O)O)ccc3nc21	113	-15	93	62
O=c1[nH]c(=O)n(Cc2ccco2)c2c1C(C(F)(F)F)(C(F)(F)F)N=C(CCC1CCCCC1)N2	101	6	101	125
O=C(O)CCC(=O)Nc1ccc(Cc2ccncc2)cc1	102	-18	101	.
CCCN(CCC)c1ccc(/C=N/n2cnnc2)cc1	102	.	101	-54
Cc1ccc(OCc2nn(CN3CCC4(CC3)OCCO4)c(=S)n2C)cc1C	108	-8	102	.
CC(CN1CCCC1)OC(=O)c1ccccc1Cl (configuration not stated)	111	-17	105	.
COC(=O)CSc1nc2ccccc2c(=O)n1-c1ccccc1	100	8	100	5
COc1ccc2c(c1)C(=O)CC(c1ccc(OC)c(OC)c1)O2 (configuration not stated)	101	-1	101	-4
CC(C(=O)NCc1ccc2c(c1)OCO2)N1CCN(c2ccc(O)cc2)CC1 (configuration not stated)	90	-13	102	84
CCC(Oc1ccccc1)c1nc(-c2ccc(OC)c(OC)c2)no1 (configuration not stated)	102	-27	103	33
CCN1C(=O)CC(Sc2ccccc2N)C1=O (configuration not stated)	100	0	104	.
O=C(Nc1ccc(N2CCN(Cc3ccccc3)CC2)cc1)Nc1ccc(C(F)(F)F)cc1	112	10	101	-1
C#CCn1c(=NC(=O)C2COc3ccccc3O2)sc2cccc(OC)c21 (configuration not stated)	107	2	98	-4

Next entries follow:
Structure	PV pol inh intensity	MenB inh	PV pol inh	Mtb MbtI inh
c1ccc(Cn2c(SCCOc3ccccc3)nnc2-c2ccco2)cc1	104	-15	99	2
CCC(c1nnnn1C(C)(C)CC)N(Cc1cc2ccc(C)cc2[nH]c1=O)C1CCCC1 (configuration not stated)	100	17	100	-5
NC1=NC(=O)/C(=C/c2ccccc2OCC(=O)Nc2ccc(F)cc2)S1	100	-57	102	-5
Cn1c(C2CC(=O)N(Cc3cccs3)C2)nc2ccccc21 (configuration not stated)	103	-5	97	4
CC(=O)n1c(=O)c2ccccc2c(=O)n1-c1ccccc1	101	16	98	57
COCC(=O)Nc1cccc(NC(C)=O)c1	104	-7	101	-52
CCOC(=O)N1CCC(NC(=O)c2ccc3c(c2)C(=O)N(C2CCN(C(=O)OCC)CC2)C3=O)CC1	105	5	100	0
CNC(=O)Cc1coc2ccc3ccccc3c12	105	-12	103	22
COc1ccc(NC(=O)c2nn(-c3ccccc3)ccc2=O)cc1	104	-1	101	-19
O=C1CC(c2cccc(Br)c2)n2ncnc2N1 (configuration not stated)	103	11	100	-6
CCOc1ccc2ccccc2c1/C=C(\C#N)C(=O)NCc1ccco1	105	-76	101	1
NNc1ncc(Cl)cc1C(F)(F)F	96	-35	103	-18
COc1ccccc1C1C(C(=O)c2sc(C)nc2C)=C(O)C(=O)N1CCCN1CCOCC1 (configuration not stated)	102	5	101	-3
CC(C)(C)c1cc(NC(=O)CSc2nc3ccccc3c(=O)n2-c2ccc(Cl)cc2)on1	98	-6	104	18
O=C(Cc1csc(NC(=O)c2ccco2)n1)NC1CCCCCC1	108	6	107	1

A portion taken from the entries so far, as a working copy:
Structure	PV pol inh intensity	MenB inh	PV pol inh	Mtb MbtI inh
CC(C)(C)c1cc(NC(=O)CSc2nc3ccccc3c(=O)n2-c2ccc(Cl)cc2)on1	98	-6	104	18
O=C(Cc1csc(NC(=O)c2ccco2)n1)NC1CCCCCC1	108	6	107	1

(more compounds)
Structure	PV pol inh intensity	MenB inh	PV pol inh	Mtb MbtI inh
CN(Cc1c(F)cccc1Cl)Cn1nnc(-c2ccccc2)n1	100	-14	99	1
O=C(NCC1CCCO1)c1ccccc1NS(=O)(=O)c1cccs1 (configuration not stated)	102	-48	104	17
COc1ccc(-c2nocc2C#N)cc1	102	-24	98	-15
C[C@@H]1C[C@H]2[C@@H]3CCC4=CC(=O)C=C[C@]4(C)[C@@]3(F)[C@@H](O)C[C@]2(C)[C@@]1(O)C(=O)CO	104	.	100	3
CC1(C)CC(=O)C=C(NC(=O)Nc2ccc(Cl)cc2)C1	103	-15	100	4
CCOC(=O)c1cc(CC)sc1NC(=O)C#Cc1ccccc1	104	.	102	-2
Cc1nnc(SCC(=O)N2CCCC2)n(N)c1=O	100	10	99	12
CCCCCCN1C(=O)CSC1c1ccccc1 (configuration not stated)	101	-68	101	8
Cc1onc(-c2ccccc2Cl)c1C(=O)NC(=S)NCc1ccco1	101	-40	102	-3
N#Cc1ccccc1OCC(=O)OC1CCOC1=O (configuration not stated)	105	10	102	5
O=C(/C=C\c1cn(-c2ccccc2)nc1-c1cccs1)N1CCCCC1	102	.	99	6
Cc1ccc(-n2c(C)cc(CC#N)c2C)cc1	121	-47	105	8
Cc1nn2c3c(cnc2c1-c1ccccc1)C(=O)CC(C)(C)C3	96	-5	104	.
Fc1ccc(CN=Cc2cc3ccccc3nc2Cl)cc1	242	-57	43	.
Cc1ccc(C(=O)NC(C)c2ccncc2)cc1 (configuration not stated)	106	9	103	-14
CCOC(=O)C1=C(CC)Nc2ccccc2N=C1NC(=O)c1cccc(S(=O)(=O)N2CCCC2)c1	113	-25	108	3
Cc1ccc(C)c(Oc2coc3cc(OC(=O)c4ccco4)ccc3c2=O)c1	101	12	102	3
Nc1nc(SCC(=O)N2CCc3ccccc32)n[nH]1	101	3	101	5
NC(=O)C(CNS(=O)(=O)c1ccc(Cl)cc1)Sc1ncccn1 (configuration not stated)	103	1	99	20
CCc1ccc(OC)c(-c2csc(N)n2)c1	101	-37	101	16
Cc1cc(C)n(CC(=O)N/N=C/c2ccccc2)n1	102	-21	103	-6
Nc1cc(-c2ccccc2)n(C(=O)Nc2ccc(Cl)cc2)n1	104	-22	105	0
COC(=O)C1C(=O)NCC1c1ccc(OC)cc1 (configuration not stated)	104	-23	100	-17
CC(=C/c1ccccc1)/C=N/n1c(C)n[nH]c1=S	102	-12	99	69
COc1ccc(C2=C(C)C(c3cccs3)c3ccccc3O2)cc1 (configuration not stated)	105	-18	109	.
CC(OC(=O)CSc1nc2ccccc2o1)C(=O)Nc1ncc(Cl)cc1Cl (configuration not stated)	112	-25	106	3
Cc1ccc(-n2c(SCc3ccc(C#N)cc3)nc3ccccc32)cc1	103	-53	99	37
CC(C)OC(=O)C1C(=O)NC2(C)CC1c1ccccc1O2 (configuration not stated)	104	-1	104	-6
CC(NC(=O)c1ccccc1NC(=O)c1ccco1)C(=O)NN(c1ccccc1)c1ccccc1 (configuration not stated)	102	9	95	32
Cn1c(-c2ccccc2)nn(CN2CCC(C(N)=O)CC2)c1=S	104	6	100	4

Copied from the list.
N#CCSc1nc2c(sc3ccccc32)c(=O)n1CCCN1CCOCC1 in MenB inh is entered as 7
Cc1nn2c3c(cnc2c1-c1ccccc1)C(=O)CC(C)(C)C3 in PV pol inh intensity is entered as 96
Cc1cccc(C)c1OCC(=O)NCc1nnc(SCC(=O)NC2CCCCC2C)n1C (configuration not stated) in MenB inh is entered as -18
NC1=NC(=O)/C(=C/c2ccccc2OCC(=O)Nc2ccc(F)cc2)S1 in PV pol inh intensity is entered as 100

(further entries)
Structure	PV pol inh intensity	MenB inh	PV pol inh	Mtb MbtI inh
Cc1noc(C)c1COc1ccccc1C(=O)N1CCCc2ccccc21	106	-15	106	-6
CCCN=Cc1c(CCC)[nH]n(-c2nc3ccccc3s2)c1=O	103	-14	101	3
O=C(Nc1ccccc1)Nc1ccccc1C(=O)NC1CCSC1 (configuration not stated)	109	-4	105	-9
Cc1ccc(-c2noc(CN3C(C)CCCC3C)n2)cc1 (configuration not stated)	104	-58	103	-4
O=C(NC1CC1)c1cc(-c2cccnc2)nc2ccccc12	96	-22	103	-4
CNc1nc(N)c(C(=O)C(C)(C)C)s1	102	-7	100	5
O=C(OCC(=O)c1ccccc1)C1=NN(c2ccccc2)C(=O)CC1	109	5	103	-2
